Source: PubChem (National Center for Advancing Translational Sciences (NCATS))
VDR inhibitor = inhibitors of human vitamin D receptor | P11473 | VDR-SRC2-3 peptide fluorescence polarization, 2 h | Potency, µM, for inactives: max response, negative = inhibition, usual class: inhibitors | hit rate 0.93% among 400,000; active = well fitted inhibition curve with a large enough effect; inconclusive = small, poorly fitted or top-dose-only effect, or another doubt; inactive = no such curve, though single readings can be large or run the other way; also: series mostly up to about 120 µM
Target sequence (P11473 whole entry, looked up): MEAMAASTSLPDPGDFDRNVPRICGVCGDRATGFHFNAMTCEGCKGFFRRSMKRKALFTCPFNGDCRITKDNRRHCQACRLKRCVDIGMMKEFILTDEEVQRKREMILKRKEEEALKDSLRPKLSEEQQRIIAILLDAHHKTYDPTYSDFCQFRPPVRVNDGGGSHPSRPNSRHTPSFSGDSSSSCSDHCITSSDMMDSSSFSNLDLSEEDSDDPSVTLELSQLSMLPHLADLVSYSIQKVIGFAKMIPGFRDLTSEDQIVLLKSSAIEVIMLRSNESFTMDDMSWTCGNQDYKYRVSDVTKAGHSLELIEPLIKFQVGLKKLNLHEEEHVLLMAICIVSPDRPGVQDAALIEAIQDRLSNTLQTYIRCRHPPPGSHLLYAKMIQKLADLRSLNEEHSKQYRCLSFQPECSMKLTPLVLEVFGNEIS
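Fluorescence polarization assay of small-molecule disruption of VDR binding to coregulator peptide SRC2-3. Compounds and controls pin-transferred, then read after 2 h incubation at ambient room temperature.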
Numbers without * were called inactive; ? = inconclusive; & = joins results of further samples. % is scaled to controls: 0 for no effect and ±100 for the full control effect; potency is read from the fitted curve at half-maximal effect. This is a subset; rates above refer to the full screens.

VDR inhibitor	canonical_smiles
6.0%	CCc1ccc(NC(=O)CN2C(=O)c3ccccc3Sc3ccc(C(=O)N4CCCC4)cc32)cc1
3.8%	COC(=O)c1cc(C(=O)OC)cc(N2C(=O)CC(Sc3nc(C)cc(C)n3)C2=O)c1 (centres undefined)
-5.4%	COc1ccc2sc(-c3ccc(SC)cc3)c(/C=C/c3ccc(OC)c(OC)c3)c2c1
-18.3%	CN(C)CCCn1c(SCC(=O)N2c3ccccc3Sc3ccccc32)nc2ccccc2c1=O
-5.5%	COc1ccccc1CCNC(=O)C(=O)NCC(c1cccs1)S(=O)(=O)c1cccs1 (centres undefined)
-4.7%&10.2%	Cc1ccc(CNS(=O)(=O)c2cc3c(cc2C)N(C)CCO3)cc1
9.7%	O=C(Cc1cccs1)NCc1cccc(Br)c1
-16.6%	CCNc1nc(NCC)nc(N/N=C(\C)c2ccc(OC)cc2)n1
15.5%	c1ccc(N2CCN(Cc3cnc(N4CCOCC4)s3)CC2)cc1
6.8%	CC(C)NC(=O)c1n[nH]c(=O)c2ccccc12
-2.5%	O=C(CSc1nc2c(cnn2-c2ccccc2)c(=O)[nH]1)N1CCOCC1
0.5%	CC(=O)c1ccc(N2CCN(C(=S)Nc3ccccc3C(F)(F)F)CC2)cc1
-21.2%	O=C(/C=C/c1cccc(Cl)c1)Nc1ncccn1
-5.6%&0.9%&3.7%	Cc1cc(N)c2ccccc2[n+]1CCCCCCCCCC[n+]1c(C)cc(N)c2ccccc21
-22.9%	O=C1CN(C(=O)c2ccccc2F)C(c2ccc(F)cc2)c2cc(F)ccc2N1 (centres undefined)
-5.4%	CC(C)(C)C1CCC(=NNC(=O)c2ccco2)CC1 (centres undefined)
-2.3%	S=c1nc(-c2ccccc2)n(-c2ccccc2)[nH]1
0.1%	O=C(N/N=C/c1ccc(Cl)cc1)Nc1ccccc1
-3.6%	COc1ccc(C(=O)N/N=C/c2sc(N3CCOCC3)nc2-c2ccccc2)cc1OC
1.8%	COC(=O)C1=C(C)N(C)C(C)=C(C(=O)OC)C1c1ccc(Cl)cc1
-13.9%	O=C(/C=C/c1cccs1)Nc1ccc(N2CCOCC2)c(S(=O)(=O)Nc2cc(Cl)ccc2Cl)c1
-18.1%	Cc1cccc(CN2CCN(CC(=O)NCCCN3CCN(c4ccc(F)cc4)CC3)C2=O)c1
1.7%	Cc1ccc(Cl)cc1NC(=O)C1CCN(S(=O)(=O)c2cccc3nonc23)CC1
6.3%	COc1cc(/C=C2\SC(=Nc3c(C)n(C)n(-c4ccccc4)c3=O)NC2=O)ccc1O
-5.8%	Cc1ccnc(NC(=O)c2ccc(Cl)s2)c1
7.9%	Cc1ccc(C)c(CN2C(=O)CSc3ccc(C(=O)NCc4ccccc4)cc32)c1
-2.8%	Cc1cc(C)n2nc(C(=O)NNC(=O)c3ccc(Cl)cc3)nc2n1
-0.8%	CC(C)CC(=O)Nc1ccc(Oc2ccc(NC(=O)CC(C)C)cc2)cc1
-11.7%	Cc1c(NC(=O)/C(=C\c2ccccc2)NC(=O)c2ccccc2)c(=O)n(-c2ccccc2)n1C
-13.5%	O=C(CSCC(=O)OCn1nnc2ccccc2c1=O)Nc1ccc(Cl)cc1
50.1µM*	Cc1ccc(C(C2=C(O)CC(C)(C)CC2=O)C2C(=O)CC(C)(C)CC2=O)s1 (centres undefined)
9.3%	CSCC(=O)Nc1ccc(F)c(Cl)c1
3.6%	COc1cccc2c(SCC(=O)N/N=C/c3ccc(O)cc3O)cc(C)nc12
-13.4%	Cc1sc2ncnc(N3CCC(C(=O)NNC(=O)COc4cccc(C(F)(F)F)c4)CC3)c2c1C
13.3%	Cc1cccc(C(=O)Oc2ccccc2-c2nnco2)c1
-14.4%	Cc1nnc(NC(=O)CN2CCN(Cc3ccccc3)CC2)s1
?	C[C@@]12C(=O)Nc3ccc(Cl)cc3C(=O)N1[C@H]1c3ccccc3OC[C@@H]1[C@@H]2c1ccccc1
-11.7%	COCCN1CCc2[nH]c(=S)[nH]c(=O)c2C1
-14.7%	Oc1ccc(C[C@H]2CNCCN2CC2CCCCC2)cc1
11.5%	N#Cc1ccccc1NC(=O)c1ccc2c(c1)OCO2
-3.4%	CCN(C(=O)COC(=O)c1ccc(=O)n(Cc2ccccc2)n1)C1CCS(=O)(=O)C1 (centres undefined)
-16.7%	CC(C)(C)c1cc[n+](CC(=O)Nc2cc(C(F)(F)F)ccc2N2CCOCC2)cc1
0.5%	COC(=O)c1ccc(C2NC(=O)NC(C)=C2C(=O)N(C)C)cc1 (centres undefined)
-9.6%	Cc1ccc(S(=O)(=O)N2CCCC2CNC(=O)C(=O)Nc2ccc(F)cc2F)cc1 (centres undefined)
-9.0%	CC1CCCCC1NC(=O)NC(=O)COC(=O)c1nccnc1N (centres undefined)
-8.9%	O=C(N/C(=C\c1cccnc1)c1nc2ccccc2[nH]1)c1cccc(Br)c1
-4.1%	CCn1c(CCNC(=O)c2ccc(OC)cc2)nnc1SCC(=O)Nc1ccccc1F
-14.3%	CC[C@]12c3[nH]c4ccc(Cl)cc4c3CCN1C(=O)[C@@H](CC(=O)NCCCN(C)C)C[C@@H]2C(=O)N1CCN(C(=O)C2CC2)CC1
-9.0%	COc1ccc(S(=O)(=O)Nc2nc3ccccc3nc2Nc2cccc(C(=O)O)c2)cc1
0.6%	CNC(=O)CSc1nnc(-c2ccccc2)n1C
11.5%	Cc1ccc(NC(=S)NCc2cccn2C)cc1
-1.0%	CCOC(=O)C1(C)Oc2ccc(S(=O)(=O)CC)cc2NC1=O (centres undefined)
5.6%	O=C(Cn1nc(-c2ccc(Cl)cc2)ccc1=O)NCCc1ccccc1
-16.7%	CC(O)(c1ccc(Cl)cc1)C(c1ccccc1)c1ccccn1 (centres undefined)
20.0%	COc1ccc(N(CC(=O)NC2CC3CCC2C3)S(=O)(=O)c2ccccc2)cc1OC (centres undefined)
-2.1%	COc1ccc(N2CCN(S(=O)(=O)c3ccc4c(c3)C(C(C)C)C(=O)N4)CC2)cc1 (centres undefined)
2.8%	COc1cc(-n2nnnc2SCC(=O)N2CCN(c3ccc(F)cc3)CC2)c(OC)cc1Cl
9.7%	COc1cc(Cl)ccc1OCc1cc(C(=O)N(C)CCc2c(C)n[nH]c2C)no1
12.2%	Cc1cc(C(=O)CN2C(=O)C(=O)N(C3CCCC3)C2=O)c(C)n1CCc1ccc(F)cc1
-4.2%	COc1ccc(S(=O)(=O)CCC(=O)NCCc2cccc(C)c2)cc1

(cont.)
VDR inhibitor	canonical_smiles
8.0%	COc1cccc(-n2cc(C(=O)NCCc3cccc(C)c3)c3ccccc3c2=O)c1
-8.6%	COc1ccc(Cl)cc1NC(=O)CN(C)C(=O)c1sc2ccccc2c1Cl
-15.9%	CCC(C)(C(=O)NC1CCCC1)N(C)C(=O)c1ccccn1 (centres undefined)
5.2%	Fc1ccc(Nc2nc3ccccc3s2)cc1
-15.8%	CCN(CC)c1ccc(NS(=O)(=O)c2ccc3c(c2)oc(=O)n3C)c(C)c1
8.9%	N#Cc1c(-c2ccc(Cl)cc2)ccn2nc(C3CCCCC3)nc12
2.3%	Cc1ccccc1C(=O)NC1CCN(CC(=O)Nc2nccs2)CC1
5.2%	Cc1cc(CN(C)C(=O)c2ccc3nc(Cc4ccccc4F)oc3c2)n[nH]1
-0.8%	Cc1ccc(CCN2C(=O)CCC2(C)C(=O)NC2CCCC2)cc1 (centres undefined)
-8.6%	Cc1c(Cl)cccc1NC(=O)CCCCCN1C(=O)CCC1=O
-11.0%	CC(C)(C)c1cc(/C=C2\NC(=O)NC2=O)cc(C(C)(C)C)c1O
-2.2%	CCOc1cccc2sc(NC(=O)CCS(=O)(=O)c3ccccc3)nc12

Entries listed so far with bromine, in the order listed:
VDR inhibitor	canonical_smiles
9.7%	O=C(Cc1cccs1)NCc1cccc(Br)c1
-8.9%	O=C(N/C(=C\c1cccnc1)c1nc2ccccc2[nH]1)c1cccc(Br)c1

Returning to the listing; the 3 compounds before the break are reprinted first.
VDR inhibitor	canonical_smiles
-8.6%	Cc1c(Cl)cccc1NC(=O)CCCCCN1C(=O)CCC1=O
-11.0%	CC(C)(C)c1cc(/C=C2\NC(=O)NC2=O)cc(C(C)(C)C)c1O
-2.2%	CCOc1cccc2sc(NC(=O)CCS(=O)(=O)c3ccccc3)nc12
15.6%	Oc1ccc(Br)cc1/C=N/Nc1ccccn1
-9.1%	COc1ccccc1CN(C)CC(=O)Nc1cccc(S(=O)(=O)N2CCCC2)c1
-16.8%	COc1cc(OC)cc(C(=O)NNC(=O)Cc2ccc(OC)c(S(=O)(=O)N3CCOCC3)c2)c1
-16.1%	CCOc1ccccc1C1NC(c2ccc3c(c2)OCO3)=CC(c2ccccc2O)N1 (centres undefined)
4.5%	CCCCC/C=C\C\C=C/C=C/C=C/[C@@H](SC[C@H](N)C(=O)NCC(=O)O)[C@@H](O)CCCC(=O)O
-8.4%	CCS(=O)(=O)N1Cc2ccccc2CC1C(=O)Nc1nc2ccccc2s1 (centres undefined)
2.9%	CCOc1ccc2nc(NCCNC(=O)Nc3ccccc3)c(C#N)cc2c1
-0.6%	O=C(c1ccc(N2CCCS2(=O)=O)cc1)N1CCN(c2ccccc2)CC1
-10.5%	CN(CCOc1ccccc1)S(=O)(=O)c1ccccc1C#N
-9.6%	Clc1ccc(-c2cc(COc3ccc4ccccc4c3)no2)cc1
-24.0%	O=C(c1ccc(O)c(Br)c1)c1cc(Br)ccc1O
-17.8%	CCCCOCCCNC(=O)Cc1ccccc1OC
-8.8%	C/C=C/c1ccc(OCC(=O)Nc2cc(Cl)ccc2-n2cncn2)c(OC)c1
0.5%	COc1cc(C(=O)NCC(c2ccc(N(C)C)cc2)N2CCc3ccccc32)cc(OC)c1OC (centres undefined)
-16.4%	Oc1ccc(Br)cc1CNc1cnc2ccccc2c1
-2.1%	CSCC[C@H](NC(=O)OC(C)(C)C)C(=O)N/N=C/c1cccc2cccnc12
3.0%	CCCc1cc(=O)oc2cc(OCc3cc(OC)c(OC)c(OC)c3)c(Cl)cc12
?	CC(NC(=O)c1cnc2ccccc2n1)c1ccccc1 (centres undefined)
-6.8%	COc1ccc(NC(=O)C(OC(=O)c2cnccn2)c2ccccc2)cc1Cl (centres undefined)
5.9%	O=c1[nH]c2cc(Cl)ccc2n(CCNc2ncc(C(F)(F)F)cc2Cl)c1=O
-13.8%	O=C(CSCc1ccccc1)N1CCN(c2ccccc2)CC1
-3.3%	Cc1cc(C)n(C(=O)C2CCCN2S(=O)(=O)c2ccc(Cl)cc2)n1 (centres undefined)
9.2%	CCc1ccc(CNC(=O)Cn2nc(C)n3c(cc4cc(C)ccc43)c2=O)cc1
0.3%	CCCS(=O)(=O)N1CCC(C(=O)NCCCOC)CC1
9.4%	O=C(CN1C(=O)NC2(CCCCCCC2)C1=O)N1CCN(C(=O)c2ccco2)CC1
5.2%	O=S(=O)(c1ccc(F)cc1)N1CC2CCCN2c2ccc(C(F)(F)F)cc21 (centres undefined)
8.6%	Cc1ccc(C(=O)NNC(=O)Cn2nnc3ccccc32)cc1
6.8%	C=CCn1c(SC)nc2sc3c(c2c1=O)CCc1ccccc1-3
2.8%	O=C(CN1C(=O)NC2(CCCCCC2)C1=O)Nc1cccc(F)c1
3.3%	NC(=O)C1CCN(C(=O)/C=C/c2ccccc2[N+](=O)[O-])CC1
-11.2%	CCOC(=O)c1sc(C)nc1C1CCN(C(=O)OCC)CC1
-5.8%	CC(C)(C)OC(=O)N1CCC[C@H]1c1nnc(SCC(=O)Nc2cccc(Cl)c2)o1
4.0%	O=C(OCc1nnc(-c2ccccc2)o1)c1ccc2c(c1)C(=O)N(CCc1ccccc1)C2=O
-4.4%	Cc1csc(SCC(=O)Nc2nccs2)n1
13.0%	CC(NC(=O)c1ccccc1Br)c1nnc(SCC(=O)NC2=NCCS2)n1C (centres undefined)
4.4%	Cc1ccc(S(=O)(=O)Nc2ccc(S(=O)(=O)N3CCOCC3)cc2)cc1[N+](=O)[O-]
2.2%	CCCCC1=CC2=C(c3ccco3)C(=O)C(C)(OC(=O)c3ccc(OC)cc3)C(=O)C2=CO1 (centres undefined)
-25.8%	Cc1nnc(SCC2=C(C(=O)O)N3C(=O)C(NC(=O)Cn4nc(C(F)F)c(Cl)c4C)C3SC2)s1 (centres undefined)
3.2%	Cc1cc2nc(CCN(Cc3cccnc3)C(=S)Nc3ccc(F)cc3)[nH]c2cc1C
8.8%	O=c1c([N+](=O)[O-])cn(Cc2ccccc2)c(=O)n1Cc1ccccc1
1.2%	O=C1COc2ccc(C(=O)COC(=O)c3ccc(F)cc3Cl)cc2N1
9.3%	COc1ccc(-c2cc(C)no2)cc1S(=O)(=O)Nc1c(C)cc(C)cc1C
-0.6%	CC(C)=CCN1CCN(Cc2cc(C(C)C)n[nH]2)CC1CCO (centres undefined)
-7.5%	CC1(C)CC(N2CCOCC2)=CC(=[N+]2CCOCC2)C1
?	O=C(CSc1ccc(Br)cc1)Nc1cccc(S(=O)(=O)N2CCOCC2)c1
-15.1%	Cc1ccc(CSCC(=O)N(C)CC(=O)Nc2ccc(Br)cc2C)cc1
-8.5%	CCOC(=O)c1c(NC(=O)CCCOc2ccc(Cl)cc2)sc2c1CCC2
-25.4%	COc1cccc(C2N(c3cccc(Cl)c3)C(=O)C3CCCN32)c1OC (centres undefined)

Sorted by molar mass (largest number first): some entries from above
VDR inhibitor	canonical_smiles
-25.8%	Cc1nnc(SCC2=C(C(=O)O)N3C(=O)C(NC(=O)Cn4nc(C(F)F)c(Cl)c4C)C3SC2)s1 (centres undefined)
2.2%	CCCCC1=CC2=C(c3ccco3)C(=O)C(C)(OC(=O)c3ccc(OC)cc3)C(=O)C2=CO1 (centres undefined)
3.2%	Cc1cc2nc(CCN(Cc3cccnc3)C(=S)Nc3ccc(F)cc3)[nH]c2cc1C
9.3%	COc1ccc(-c2cc(C)no2)cc1S(=O)(=O)Nc1c(C)cc(C)cc1C
-25.4%	COc1cccc(C2N(c3cccc(Cl)c3)C(=O)C3CCCN32)c1OC (centres undefined)
1.2%	O=C1COc2ccc(C(=O)COC(=O)c3ccc(F)cc3Cl)cc2N1
-0.6%	CC(C)=CCN1CCN(Cc2cc(C(C)C)n[nH]2)CC1CCO (centres undefined)
